Screening data deposited in PubChem by National Center for Advancing Translational Sciences (NCATS).
miR-21 FLuc – qHTS Assay for Modulators of miRNAs and/orActivators of miR-21; HeLa miR-21 FLuc reporter, luciferase, 48 h; 340,000 tested, under 10 active; Potency, µM (top dose mostly 38.3 µM), for the others: at the top dose reporter change, positive = more light; active = well fitted rising curve with a large enough effect; inconclusive = small, poorly fitted or top-dose-only effect; inactive = no such curve, though single readings can be large or run the other way;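 further: % of control where 0% means no effect; miR-21 action dims this reporter so a rising signal means less miR-21 action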
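Using DMEM plus 10% FBS, HeLa miR-21-FLuc cells are incubated with test compounds (final up to about 40uM) for 48 hours; firefly luciferase signal is then imaged following reagent-mediated lysis.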
Rango dissoc inh – qHTS Assay for Inhibitors of RanGTP induced Rango (Ran-regulated importin-beta cargo) - Importin beta complex dissociation; Biochemical FRET Rango-importin beta, RanGTP-induced dissociation; Snurportin-1 (Homo sapiens) + GTP-binding nuclear protein Ran (Homo sapiens) + Importin …; hit rate 0.071% among 340,000; Potency, µM (doses to about 46.1 µM), for inactives: at the highest dose activity change, negative = inhibition; active means falling FRET ratio curve, often poorly fitted, with flat reads before Ran was added; inconclusive means other falling curves, or compound fluorescence or quenching; inactive means flat or rising ratio curve;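 further: potency means the concentration at half of the fitted maximal effect; % of control where 0% means no effect; nearly all actives have a fitted effect of over 45% in size; -100% = wells without RanGTP and RCC1; the record marks most hits as doubtful in a second field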
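Recombinant Rango FRET biosensor (EYFP–snurportin 1 IBB–cerulean CFP10) at 0.1 uM premixed with 0.25 uM importin beta in PBS, 1 mM DTT, 0.02% Tween-20, 0.1% BSA. Compound added 5 min; RanGTP-RCC1 (0.6 uM Ran, 2 mM GTP, 0.2 uM RCC1) then triggers release, read at 45 min.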
GLA inh pH 4.5 – qHTS Assay for Inhibitors of Human alpha-Galactosidase at pH 4.5; Alpha-galactosidase A (Homo sapiens), P06280; activity change, negative = inhibition, % at 105 µM; 230,000 tested, under 10 active; purified enzyme, 4-MU-alpha-Gal fluorescence, pH 4.5; AID 1467, 2008; inconclusive = small, poorly fitted or top-dose-only inhibition, or a rising curve; inactive = flat fitted curve, though single readings scatter; no compound was filed as active;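 further: 0% = full activity with enzyme and -100% = basal without enzyme; dose as in the result columns while the protocol names 77 µM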
Rango complex inh – qHTS Assay for Inhibitors of Rango (Ran-regulated importin-beta cargo) - Importin beta complex formation; Importin subunit beta-1 (Homo sapiens), Q14974; Rango CFP/YFP FRET sensor + importin beta, 45 min; Potency, µM (highest dose often 92.2 µM), for inactives: top-dose inhibition of complex formation; hit rate 0.031% among 340,000; active = rising FRET ratio curve, often small or poorly fitted; inconclusive = mostly compound fluorescence or quenching in the first reads; inactive = flat curves in all reads;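 further: potency means the concentration at half of the fitted maximal effect; 0% = DMSO wells and 100% = buffer wells lacking importin beta; nearly all actives have a fitted effect of over 15% in size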
Target sequence (Q14974 whole entry, looked up): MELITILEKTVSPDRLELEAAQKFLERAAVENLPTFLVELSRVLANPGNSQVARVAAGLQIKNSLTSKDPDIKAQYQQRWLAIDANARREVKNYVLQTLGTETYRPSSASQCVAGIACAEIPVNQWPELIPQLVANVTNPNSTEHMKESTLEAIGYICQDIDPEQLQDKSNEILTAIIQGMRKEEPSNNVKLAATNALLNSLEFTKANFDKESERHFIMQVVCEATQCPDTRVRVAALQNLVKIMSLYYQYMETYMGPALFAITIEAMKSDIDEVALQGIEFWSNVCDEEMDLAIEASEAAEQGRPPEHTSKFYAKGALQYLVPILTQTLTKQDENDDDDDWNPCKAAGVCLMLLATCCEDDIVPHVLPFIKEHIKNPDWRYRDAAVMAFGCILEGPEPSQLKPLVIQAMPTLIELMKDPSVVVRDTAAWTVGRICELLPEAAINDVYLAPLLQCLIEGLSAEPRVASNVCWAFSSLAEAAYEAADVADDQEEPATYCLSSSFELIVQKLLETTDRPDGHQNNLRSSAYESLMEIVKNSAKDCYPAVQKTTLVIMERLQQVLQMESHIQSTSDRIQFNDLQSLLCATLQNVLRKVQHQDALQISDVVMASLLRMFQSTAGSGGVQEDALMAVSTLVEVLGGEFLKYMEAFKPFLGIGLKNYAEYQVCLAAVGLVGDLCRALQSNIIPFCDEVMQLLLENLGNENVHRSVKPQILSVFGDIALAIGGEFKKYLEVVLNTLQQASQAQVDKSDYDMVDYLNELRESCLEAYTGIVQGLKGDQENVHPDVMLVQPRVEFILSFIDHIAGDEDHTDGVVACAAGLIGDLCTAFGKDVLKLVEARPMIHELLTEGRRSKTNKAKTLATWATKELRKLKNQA
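FRET biosensor (snurportin 1 IBB flanked by EYFP and cerulean), 50 nM, with compound 5 min, then 0.125 microM importin beta in PBS, 1 mM DTT, 0.02% Tween-20, 0.1% BSA. CFP/YFP ratio read after 45 min at room temperature; pre-read flags interference.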
* = called active by the depositor; ? = inconclusive; . = no result given; [ ] = another dose, or the depositor's remark. A portion of the library; the hit share may differ from the screen's.

SMILES	miR-21 FLuc	Rango dissoc inh	GLA inh pH 4.5	Rango complex inh
O=c1c2ccccc2nc2ccc(NCc3cccs3)nn12	-33%	0%	-2	1.3%
COc1ccc(NC(=O)C2CCCN2S(=O)(=O)c2ccc3c(c2)CC(C)N3C(C)=O)cc1OC (stereo not drawn)	-4%	-12%	.	?
Cc1ccc2[nH]c(=O)c(C(c3nnnn3Cc3ccccc3)N3CCc4ccccc43)cc2c1 (stereo not drawn)	0%	?	-5	?
CCc1sc(C(=O)Nc2nc(C)cs2)cc1C	-14%	23%	.	-1.3%
O=C(COC(=O)c1ccc(-c2nnc(-c3ccccc3)o2)cc1)c1ccccc1	-31%	-12%	4	2.7%
CCCCC(=O)NNC(=S)NC(=O)CCC	0%	10%	5	4.1%
O=S(=O)(c1c(F)cccc1F)C1CCN(S(=O)(=O)c2ccc3c(c2)OCCO3)CC1	.	1%	.	-0.2%
O=C1C=C(N2CCCCCC2)C(=O)N1c1ccc(Cl)cc1	-81%	1%	.	?
COc1cc(C=O)ccc1OC(=O)c1ccncc1	4%	2%	-7	-0.9%
O=S(=O)(c1ccccc1)N1CCN(S(=O)(=O)N2CCCCC2)CC1	-6%	-1%	8	?
Cn1c(=O)n(C)c2cc([N+](=O)[O-])c(N3CCN(C(=O)c4ccc(Cl)cc4)CC3)cc21	-4%	3%	-26	1.3%
CC(C)CCNC(=O)C(=O)Nc1ccccc1	-60%	-7%	-1	2.7%
CCOC(=O)c1ccc(NC(=O)NC(C)C2CCCO2)cc1 (stereo not drawn)	-22%	2%	-1	-0.1%
COc1ccc(S(=O)(=O)N2CCCN(CC(=O)C(C)(C)C)CC2)cc1	1%	-15%	6	0.9%
Cc1coc2c1c(C)cc1oc(=O)c(CC(=O)NCC(=O)N[C@H](C(=O)O)C(C)C)c(C)c12	-1%	6%	.	-3.9%
NS(=O)(=O)c1ccc(CCNC(=O)CSc2ccc(Cl)cc2Cl)cc1	0%	0%	9	-0.6%
CC(=O)c1ccccc1OC(=O)c1c(F)cccc1F	-3%	14%	-3	0.4%
O=C(O)c1ccccc1C(=O)NNc1ccc(Cl)cc1	-5%	15%	10	6.8%
COC(=O)c1cc(NC(=O)CN(c2ccc3c(c2)OCO3)S(C)(=O)=O)ccc1Cl	-8%	5%	-36	-0.6%
Cc1cc(Nc2ccc(Cl)cc2)nc(NCc2ccccc2)n1	?	8%	0	-2.2%
COc1ccccc1NC(=O)C1CCCN(S(=O)(=O)c2ccc3[nH]c(=O)ccc3c2)C1 (stereo not drawn)	-2%	-5%	.	0.8%
Cc1ccc(N2C(=O)C3C(c4ccccc4)N4CCCN4C3(C)C2=O)cc1 (stereo not drawn)	0%	-6%	-3	4.5%
CC1CCN(C(=O)c2ccc(COc3ccccc3Cl)o2)CC1	-38%	-16%	-22	0.0%
Cc1nc2ccc(C(=O)N/N=C/c3cc([N+](=O)[O-])ccc3O)cc2[nH]1	1%	-1%	-7	1.1%
COc1ccc(S(=O)(=O)N2CCCCCC2)cc1C(=O)OCc1c(C)noc1C	-14%	-14%	4	2.7%

5 successive compounds already listed, quoted:
SMILES	miR-21 FLuc	Rango dissoc inh	GLA inh pH 4.5	Rango complex inh
O=c1c2ccccc2nc2ccc(NCc3cccs3)nn12	-33%	0%	-2	1.3%
COc1ccc(NC(=O)C2CCCN2S(=O)(=O)c2ccc3c(c2)CC(C)N3C(C)=O)cc1OC (stereo not drawn)	-4%	-12%	.	?
Cc1ccc2[nH]c(=O)c(C(c3nnnn3Cc3ccccc3)N3CCc4ccccc43)cc2c1 (stereo not drawn)	0%	?	-5	?
CCc1sc(C(=O)Nc2nc(C)cs2)cc1C	-14%	23%	.	-1.3%
O=C(COC(=O)c1ccc(-c2nnc(-c3ccccc3)o2)cc1)c1ccccc1	-31%	-12%	4	2.7%

Following part.
SMILES	miR-21 FLuc	Rango dissoc inh	GLA inh pH 4.5	Rango complex inh
OCC[C@@H]1C[C@@H](O)[C@H](O)[C@]2(CCc3ccccc3O2)O1	-4%	4%	.	3.0%
O=C(/C=C/c1ccc2c(c1)OCO2)NCc1ccncc1	1%	11%	3	0.4%
COc1ccc(S(=O)(=O)N2CCN(C3CCN(Cc4ccccc4)CC3)CC2)cc1	-1%	2%	1	0.9%
O=C(CNS(=O)(=O)c1ccccc1)N/N=C\c1ccc(Cl)cc1	-7%	-14%	0	1.3%
COc1ccc(-c2ccc3oc(-c4ccsc4)cc(=O)c3c2)cc1F	.	-9%	.	5.7%
Cc1nc(/N=C(\N)N(C)C)[nH]c(=O)c1C	2%	4%	10	0.8%
CSc1ccc(CNc2ncc(-c3cccc([N+](=O)[O-])c3)n2C)cc1	9%	28%	.	8.6%
CC(C)OC(=O)/C(=C\c1ccc2c(c1)c1ccccc1n2C)NC(=O)c1ccccc1	-11%	-7%	-4	-2.6%
COc1ccc(NC2=NCC(=O)N2c2ccccc2F)cc1	-1%	4%	-12	0.4%
COc1ccccc1-c1nc2c(c(SCC(=O)N3CCCCC3)n1)Cc1c(CO)cnc(C)c1O2	5%	-7%	.	-1.3%
CCOC(=O)Cc1nnc(NC(=O)COc2ccc(C)cc2)s1	-1%	-2%	-3	?
COc1cccc(/C=C2\SC(=O)N(CCC(=O)NNC(=O)c3ccccc3Cl)C2=O)c1	-2%	30%	4	0.5%
C[C@@H](C(=O)Nc1ccc2ccccc2c1)[C@@H]1C[C@@]1(C)[C@@H](N)c1ccccc1	.	-9%	-8	2.3%
O=C(CSc1nc2ccccc2c(=O)[nH]1)Nc1ccc(N2CCOCC2)cc1	-3%	19%	.	0.0%
CC(=O)Nc1ccc(/C(C)=N/NC(=O)c2ccc(CN3CCOCC3)cc2)cc1	-7%	-8%	-1[21.1 µM]	-1.9%
CC(C)OC(=O)CC1C(=O)NCCN1C(=S)NC(=O)CCc1ccccc1 (stereo not drawn)	3%	-2%	7	-2.5%
CCc1ccc(NC(=O)C(CC)Sc2nc3cc4c(cc3c(=O)n2Cc2ccco2)OCO4)cc1 (stereo not drawn)	2%	6%	-5	-2.0%
O=C(O)c1ccc(Nc2ncnc3c2cnn3Cc2ccccc2)cc1	4%	6%	2	1.2%
Cc1ccc(NC(=S)NCC2CCCO2)c(OC(F)F)c1 (stereo not drawn)	-21%	-10%	-11	10%
CCCCCCSc1ccc([C@@H]2[C@@H]3C(=O)N(CC)C(=O)[C@@H]3[C@]3(C(=O)OC)CCCCN23)cc1	.	-1%	.	0.7%
Oc1cccc(C=NCc2ccccc2)c1O	-1%	1%	-13	4.8%
C[C@H](NC(N)=O)C(=O)N1CCN(S(=O)(=O)c2ccc3ccccc3c2)CC1	-3%	28%	.	-4.0%
Cc1oc2ccc(OCc3ccc(F)cc3)cc2c1C(=O)O	0%	20%	11	-3.3%
CCC(=O)Nc1ccccc1Oc1ccccc1	-7%	11%	5	1.6%
c1ccc(CSc2ccc(-c3cccnc3)nn2)cc1	-61%	-12%	-7	0.0%

The results go on:
SMILES	miR-21 FLuc	Rango dissoc inh	GLA inh pH 4.5	Rango complex inh
O=C(COC(=O)c1cnccn1)NCCc1ccc(Cl)cc1Cl	-2%	0%	-23	0.1%
Cc1ccccc1NC(=O)CCN1CCN(Cc2ccccc2)CC1	-8%	2%	1	0.3%
CC1CN(C(=O)CSc2nnc(C3CCCCC3)n2N)CC(C)O1 (stereo not drawn)	.	-7%	.	8.5%
Cc1ccc(OCC(=O)N/N=C2\CC(=O)CC(C)(C)C2)c(Br)c1	-4%	0%	.	-2.9%
OCCC1CN(Cc2cc(F)ccc2-n2cccn2)CCN1C1CCCC1 (stereo not drawn)	0%	1%	-3	-1.2%
COc1ccccc1NC(=O)C(C)OC(=O)C1CCN(S(=O)(=O)c2ccccc2C(F)(F)F)CC1 (stereo not drawn)	.	?	.	0.0%
O=C(Nc1ccc(Br)cc1)C1CC(O)CN1C(=O)Oc1ccccc1 (stereo not drawn)	-2%	17%	.	3.4%
CN=c1scc(C)n1/N=C/c1cc(Br)c(O)c(OC)c1	-19%	?	2	?
CS(=O)(=O)CC(=O)Nc1ccc2nc3n(c(=O)c2c1)CCCCC3	-1%	-2%	-1	0.2%
Cc1ccc(-c2csc(N3CCC(C(N)=O)CC3)n2)cc1	.	7%	.	-3.2%
C=CCOCCN1C(=O)C2C(c3ccccc3)C=CC(c3ccccc3)C2C1=O (stereo not drawn)	-6%	?	4	?
CCOc1ccc(CNC(=O)Nc2ccccc2)cc1	-47%	17%	.	-2.1%
COc1ccc(CC(=O)Nc2ccc3nc(SC)sc3c2)cc1OC	1%	3%	-4	0.0%
COC(=O)/C=C1\S/C(=N\N=C\CC(=O)OC)NC1=O	0%	-4%	-1	1.1%
COc1ccc([N+](=O)[O-])cc1NC(=O)C(C)N(C)Cc1cccc(OC)c1OC (stereo not drawn)	-10%	5%	-8	-2.3%
COc1ccc(C)cc1NC(=O)C(OC(=O)C1CC1)c1ccccc1 (stereo not drawn)	-9%	22%	-7	3.2%
c1ccc2cc(OCc3nc4ccccc4[nH]3)ccc2c1	-60%	3%	-13	-6.0%
Cc1cccc(N(C)S(=O)(=O)c2c(C)noc2C)c1	1%	-12%	.	?
CCOC(=O)C1CCN(C(=O)c2ccc(Cl)c(S(=O)(=O)N3CCOCC3)c2)CC1	-8%	1%	5	0.0%
Cc1ccc(-c2cc(C(=O)O)c3cc(Br)ccc3n2)o1	2%	-3%	6	?
S=c1[nH]cc(-c2ccccc2)n1-c1cccc(Cl)c1	29%	-13%	0	-4.2%
COc1ccc(CCNC(N)=S)cc1OC	-6%	-17%	6	1.5%
CC[N+](CC)(CC=C(C)C)CC(=O)OC	5%	16%	3	1.5%
Cc1cc(C)n2c(=O)[nH]nc2c1	.	?	.	0.5%
O=C(CNC(=O)c1ccco1)NCc1ccc2c(c1)OCO2	.	-3%	.	-0.5%

Next section; it opens with the 2 that closed the last part.
SMILES	miR-21 FLuc	Rango dissoc inh	GLA inh pH 4.5	Rango complex inh
Cc1cc(C)n2c(=O)[nH]nc2c1	.	?	.	0.5%
O=C(CNC(=O)c1ccco1)NCc1ccc2c(c1)OCO2	.	-3%	.	-0.5%
CCC(=O)N1c2ccc(S(=O)(=O)N3CCN(CC)CC3)cc2CC1C (stereo not drawn)	-7%	8%	.	0.2%
COc1ccc(-c2cc(C(F)(F)F)nc(SCC(=O)Nc3cc(C)on3)n2)cc1OC	-2%	3%	25	2.6%
CSc1ccccc1NC(=O)c1cccnc1	-10%	-7%	-12	0.3%
CC1(C)CC(=O)C/C(=N\NC(=O)CCc2ccc(S(=O)(=O)N3CCOCC3)cc2)C1	-1%	-5%	-5	?
Cc1c(Br)c([N+](=O)[O-])nn1CC(=O)c1ccccc1	1%	5%	2	4.1%
CCn1c(SCC(=O)Nc2nccs2)nnc1-c1ccc(S(=O)(=O)N2CCCCCC2)cc1	23%	-17%	-8	0.5%
O=C(NCC1CCCO1)c1ccc(S(=O)(=O)N2CCCCC2)cc1 (stereo not drawn)	-2%	11%	-1	-1.7%
O=C(CCC1CCCCC1)Nc1ccc(S(=O)(=O)Nc2nccs2)cc1	-9%	11%	0	-1.4%
Cc1cccc(N2C(=NC(=O)c3ccccc3)SC3CS(=O)(=O)CC32)c1 (stereo not drawn)	0%	-8%	.	1.9%
O=[N+]([O-])c1cc(-c2nc3nc4ccccc4nc3n2CCc2ccccc2)cc([N+](=O)[O-])c1	-1%	9%	7	2.5%
COc1cccc2cc(C(=O)N3CCN(C/C=C/c4ccccc4)CC3)c(=O)oc12	2%	?	-12	?
O=C1C2C3C=CC(C3)C2C(=O)N1CC1CCCO1 (stereo not drawn)	0%	1%	-7	1.0%
CCN1C(=O)C(CC(=O)Nc2ccc(OC)cc2)N(Cc2cccnc2)C1=S (stereo not drawn)	1%	15%	2	4.9%
